ClpP mod: qHTS Assay for Activators of ClpP; hit rate 1.9% among 340,000; ATP-dependent Clp protease proteolytic subunit (Bacillus subtilis (strain 168)), P80244; Potency, µM (highest dose often 57.5 µM), for inactives: at the top dose activity change, negative = active; purified B. subtilis ClpP, FRET peptide cleavage, 20 min; active = well fitted falling curve with a large enough effect; inconclusive = small, poorly fitted or top-dose-only effect; inactive = no such curve, though single readings can be large or run the other way; further: potency means the concentration at half of the fitted maximal effect; the source files actives as falling curves though it sought activators and does not explain the sign; nearly all actives have a fitted effect of over 65% in size; many hits overshoot -100%
Target sequence (P80244 whole entry, looked up): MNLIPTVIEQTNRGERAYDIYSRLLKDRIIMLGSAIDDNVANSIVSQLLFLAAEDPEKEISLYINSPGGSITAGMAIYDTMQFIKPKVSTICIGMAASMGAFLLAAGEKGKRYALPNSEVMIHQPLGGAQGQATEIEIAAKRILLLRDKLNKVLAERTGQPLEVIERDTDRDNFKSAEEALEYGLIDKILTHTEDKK
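FRET quenching reversal measured ClpP activation: 10 microg/mL B. subtilis ClpP at pH 8 with the FRET-FV decapeptide, read at 430 nm after 320 nm excitation. The 20-min minus 0-min signal was scaled between DMSO/no-enzyme wells and ADEP (5.8 microM final).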
PINK1 modulator: modulators of PINK1 expression | PINK1 immunofluorescence, high-content cytometry, 24 h | Potency, µM (titrated, usually from 76.6 µM), for inactives: at the highest dose activation (PINK1 increase), most hits filed as activators | hit rate 0.2% among 410,000; active = well fitted activation curve with a large enough effect; inconclusive = small, poorly fitted or top-dose-only effect; inactive = flat fitted curve, though single readings scatter; cell line not stated here;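 further: potency means the concentration at half of the fitted maximal effect; % of control where 0% means no effect; nearly all actives have a fitted effect of over 65% in size; a mitochondrial uncoupler was the plate control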
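Stable cell line, 250 cells/well, 12 h attachment; compounds pinned at 5 concentrations, 24 h; CCCP control. Fixed with nuclear dye, primary antibodies 12 h at 10 degrees C, secondary plus cell stain; laser-scanning cytometer read.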
TRPML1 agonist: agonists of human TRPML1 channel; Q9GZU1; TRPML1-expressing cells, Ca2+ dye fluorescence, FDSS; host cell line not named in the record; reference of the full effect not given here; activation, % (test concentration not listed); hit rate 0.12% among 410,000; AID 624414; in the data active = activation above about 50%; inconclusive = about 30% to 50%; inactive = below about 30%; further: 0% is about no effect; the text of the record puts the active cut at 80%
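In this qHTS format, compounds were pin-transferred onto Ca8-dye-loaded TRPML1-DL cells induced with Tet overnight, and intracellular Ca2+ fluorescence was recorded kinetically for 110 s after a 10 s baseline. A subsequent 4uM final 54-4 (EC80) addition followed by a second 110 s read served as the antagonist phase.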
TRPV1 PAM: human TRPV1 potentiation. Q8NER1. TRPV1-expressing cells, Fluo-8 calcium influx, capsaicin EC20 potentiation; host cell line not named in the record; control for the full effect not named in the record. potentiation, % at 8.33 µM. hit rate 0.02% among 320,000. AID 540277; active means potentiation above 80%; inconclusive means 30% to 80%; inactive means below 30%; further: 0% is about no effect
Target sequence (Q8NER1 whole entry, looked up): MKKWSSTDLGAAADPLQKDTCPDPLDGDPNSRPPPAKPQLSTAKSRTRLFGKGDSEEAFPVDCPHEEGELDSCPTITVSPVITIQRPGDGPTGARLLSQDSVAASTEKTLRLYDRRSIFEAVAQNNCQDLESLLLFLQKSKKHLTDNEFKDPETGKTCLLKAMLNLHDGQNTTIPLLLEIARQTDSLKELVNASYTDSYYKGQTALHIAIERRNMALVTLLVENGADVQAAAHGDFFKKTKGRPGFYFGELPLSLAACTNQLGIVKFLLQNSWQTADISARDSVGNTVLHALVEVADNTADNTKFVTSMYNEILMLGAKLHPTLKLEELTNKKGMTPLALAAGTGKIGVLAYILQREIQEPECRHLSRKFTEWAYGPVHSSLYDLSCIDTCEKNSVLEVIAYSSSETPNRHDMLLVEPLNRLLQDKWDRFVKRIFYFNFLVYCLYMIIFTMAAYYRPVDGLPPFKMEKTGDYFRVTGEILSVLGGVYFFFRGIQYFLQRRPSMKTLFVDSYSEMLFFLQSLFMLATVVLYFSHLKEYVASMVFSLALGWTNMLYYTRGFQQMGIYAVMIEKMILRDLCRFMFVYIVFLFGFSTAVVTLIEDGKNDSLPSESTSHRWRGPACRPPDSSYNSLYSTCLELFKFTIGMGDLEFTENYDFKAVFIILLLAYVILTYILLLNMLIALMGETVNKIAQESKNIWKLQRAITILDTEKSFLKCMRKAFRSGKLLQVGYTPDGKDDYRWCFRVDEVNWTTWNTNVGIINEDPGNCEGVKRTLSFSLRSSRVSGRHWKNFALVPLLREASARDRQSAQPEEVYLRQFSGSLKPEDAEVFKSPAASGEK
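Fluo-8 calcium influx in TRPV1-expressing cells, kinetic read (ex 480/em 520 nm). Compound added and read 3 min for agonist activity, followed by capsaicin at EC20 final and 2 min further read for enhancement.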
Sfp inh: inhibitors of Bacillus subtilis Sfp phosphopantetheinyl transferase. Q9F4F7. Biochemical Sfp PPTase activity, qHTS. Potency, µM, for the others: max response, negative = inhibition, hits mostly inhibitors. hit rate 3.5% among 310,000. AID 1490; active means well fitted inhibition curve with a large enough effect; inconclusive means small, poorly fitted or top-dose-only effect, or another doubt; inactive means no such curve, though single readings can be large or run the other way;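 further: the enzyme is Sfp with the accession as filed and its product quenches rhodamine fluorescence; potency means the concentration at half of the fitted maximal effect; 0% = enzyme reaction without inhibitor and -100% = no enzyme wells; top concentration of the series not given in the record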
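Reaction rates are the 30-min fluorescence difference (ex 525, em 598 nm) in wells containing 15 nM Sfp, 5 uM rhodamine-CoA and 12.5 uM BHQ-2-YbbR at pH 7.6 with 10 mM MgCl2.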
TRPML1 inh: blocks the human TRPML1 channel. TRPML1-inducible cells, Ca2+ dye fluorescence, FDSS; hits give low values; inhibition of EC80 agonist-evoked calcium signal. hit rate 0.02% among 390,000. activity change, negative = inhibition, % (test concentration not listed); in the data active means activity change below about -50%; inconclusive means about -30% to -50%; inactive means above about -30%;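 further: stimulus is agonist 54-4 at its EC80 concentration; on the % scale 0 is the no-effect control and ±100 the full control effect; compound concentration not given in the record; the text of the record puts the active cut at -80%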
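TRPML1-DL cells, Tet-induced overnight (~16 h, 37 °C) at 1,500 cells/well, were loaded with Ca8 no-wash dye plus quencher for 45-90 min at room temperature. Compounds were pinned during FDSS kinetic reading; agonist 54-4 at EC80 (4 uM final) then added.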
Menin-MLL FL inh: inhibitors of human menin-MLL interaction, wild-type MLL peptide. FP activity change, % at 61.4 µM. 290,000 tested, under 10 active. Fluorescence polarization, fluorescein-MLL peptide displacement from menin; inconclusive = falling polarisation curve, or a change in total fluorescence; inactive = total fluorescence flat and polarisation flat or rising; no compound was filed as active; the % refers to the polarisation; negative = inhibition;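 further: % of control where 0% means no effect; inhibitors lower the polarisation; unlabelled MLL peptide was the positive control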
Active calls of the source: *; ? = inconclusive; · = no result given; & = joins results of further samples; [ ] = remark or other dose.

SMILES	ClpP mod	PINK1 modulator	TRPML1 agonist	TRPV1 PAM	Sfp inh	TRPML1 inh	Menin-MLL FL inh
O=C(c1ccc2c(c1)OCCO2)C1CCN(S(=O)(=O)c2cccc(F)c2)CC1	-2.7%	-2.0%[38.3 µM]	1.4	23	-10%	-4	14
C[C@H](CO)N1C[C@H](C)[C@@H](CN(C)S(C)(=O)=O)Oc2ccc(NC(=O)Nc3ccc4c(c3)OCO4)cc2C1=O	0.2%	0.0%	-0.2	·	·	21	·
CC(=O)Nc1ccc(NC(=O)c2ccc3c(c2)C(=O)N(c2ccccc2C)C3=O)cc1	-1.9%	7.1%	·	-17	?	·	9.4
COc1ccc(OC)c(NC(=O)CSc2ncnc3c2cnn3-c2ccccc2Cl)c1	-3.3%	-2.0%	3.6	8	18%	26	1.9
COc1ccc(C=O)cc1CSc1ccccn1	-0.5%	5.0%	0.8	2	-25%	-14	0.7
COc1ccccc1C(=O)Nc1nnc(S(=O)(=O)N(C)c2ccc(Cl)cc2)s1	-13%	0.9%	-0.1	·	·	23	·
CC(=O)Nc1ccc(NC(=O)Cn2nc([N+](=O)[O-])c(Br)c2C)cc1	·	1.9%	-1.4	3	-1%	14	2.1
COC(=O)[C@@H](NC(=O)Nc1cccc(Br)c1)C(C)C	-0.4%	-1.0%	1.3	-6	-12%	9	3.6
O=C(COC(=O)c1ccc([N+](=O)[O-])o1)Nc1cccc(S(=O)(=O)N2CCCCC2)c1	·	0.8%	-0.7	5	12%	-3	3.5
CCC(C)c1ccc(O)c(NC(=S)NC(=O)c2cccnc2)c1 (configuration not stated)	·	18%	0.6	-14	1%	1	0.5
Cc1cc(NC(=O)CSc2ccc3nnc(-c4ccccn4)n3n2)no1	5.2%	0.1%	0.6	-7	-5%	12	-1.3
Cc1cc(C)n2c(Nc3c(C)cccc3C)c(CCc3ccccc3)nc2n1	-8.0%	3.5%	4.2	·	·	·	·
CC(=O)NCC1CCCN(C(=O)c2ccc(OC3CCN(Cc4ccccn4)CC3)cc2)C1 (configuration not stated)	-0.7%	-0.6%	-0.2	7	-2%	-3	·
COc1cccc(CNC(=O)C2CCCN(S(=O)(=O)N3CC(C)CC(C)C3)C2)c1 (configuration not stated)	0.6%	-0.8%	0.6	-10	7%	6	-1.9
CCCCCOc1ccc(NS(C)(=O)=O)cc1	-2.8%	-1.1%	1.0	-4	8%	-3	0.0
Cc1nc(-c2ccccc2)sc1CCNC(=O)C(=O)Nc1ccc2c(c1)OCO2	2.9%	-0.2%	5.6	·	·	12	·
CCOC(=O)c1ccc(NC(=O)C2CC(=O)N=C(N)S2)cc1 (configuration not stated)	-1.5%	-1.4%	-0.2	10	12%	0	3.6
COc1cc(C#N)c(NC(=O)CN2CCC(C(N)=O)CC2)cc1OC	-0.7%	0.3%	-0.5	10	18%	42	5.4
CCc1cccc2sc(N3CCN(C(=O)C4CC4)CC3)nc12	1.8%	1.8%	2.5	·	·	0	·
CCN(CC)CCNc1ccc2nnc(CCNS(=O)(=O)c3ccc(C)cc3)n2n1	-7.8%	-0.3%	0.3	-3	2%	3	-2.0
COc1cc(Cl)c(C)cc1NC(=O)CC(c1ccc(F)cc1)N1Cc2ccccc2C1=O (configuration not stated)	0.1%	1.2%	0.3	·	·	3	·
CCN(CC)c1ccc([N+](=O)[O-])cc1C(=O)O	0.6%	2.1%	-0.1	1	10%	13	6.8
Cc1ccc(NC(=O)CSc2ncnc3ccccc23)cc1S(=O)(=O)N1CCCCCC1	-5.3%	0.8%	1.3	9	11%	8	11
Cc1ccc(C(=O)NNC(=O)c2ccncc2)cc1S(=O)(=O)N1CCOCC1	1.0%	1.5%	-0.3	0	·	14	·
COCCNC(=O)Cn1nc(-c2ccc(C)cc2)c2ccccc2c1=O	-3.9%&-2.5%	2.1%&1.2%	-0.3	13	12%	23	-2.2
SMILES	ClpP mod	PINK1 modulator	TRPML1 agonist	TRPV1 PAM	Sfp inh	TRPML1 inh	Menin-MLL FL inh
CCCOc1ccc([N+](=O)[O-])c(N)c1	1.3%	-1.3%	0.3	-13	8%	7	3.1
CCN(CC)S(=O)(=O)c1cc(C(=O)Oc2cccc(-c3cnc4ccccc4n3)c2)ccc1Br	-2.3%	-3.8%	0.0	9	11%	23	4.8
CCOc1ccc(Nc2nc(N)nc(CSC(=S)N3CCOCC3)n2)cc1	1.1%	-0.5%	1.6	-21	2%	24	3.6
O=C1OCCN1N=Cc1ccco1	·	1.2%	-0.2	·	·	-5	·
O=C(COc1ncnc2ccccc12)N1CCN(C(=O)c2ccco2)CC1	0.8%	-0.9%	-0.5	-3	15%	4	0.3
CC(=O)c1cccc(NC(=O)Cn2cnc(S(=O)(=O)N3CCC(C)CC3)c2)c1	2.5%	5.6%	-0.8	3	11%	-23	·
CCN(CC)C(=O)C1=C(C)Nc2nc3ccccc3n2C1c1ccc(Cl)cc1 (configuration not stated)	-19%	1.9%	-0.2	·	·	0	·
COc1ccc(/C=N/OCC(=O)NCc2cccs2)c(OC)c1	-2.7%	3.4%	-0.7	1	12%	7	3.8
COc1ccccc1NC(=O)c1oc2ccccc2c1NC(=O)c1ccc(S(=O)(=O)N(C)C)cc1	12%	1.5%	-0.6	·	·	3	·
CC(=O)c1cccc(NC(=O)c2cc(S(=O)(=O)N3CCOCC3)cs2)c1	-1.9%	-0.8%	0.7	-14	6%	25	·
O=C1CCCC/C1=C\Nc1ccc(S(=O)(=O)Nc2cnc3ccccc3n2)cc1	-4.9%	-0.2%	1.3	-1	10%	6	?
CCOc1ccc(CCNC(=O)C(CC)n2nc(C)c3c(C)n(-c4ccccc4)nc3c2=O)cc1 (configuration not stated)	-0.9%	-1.9%	0.4	·	·	-16	·
CCCC(=O)C1=C(O)C(C(=O)OC)C(C)(C)CC1=NC (configuration not stated)	-2.6%	0.4%	-0.4	-4	15%	11	-4.7
Cc1ccc(O)c(C(=O)c2cc(C#N)c3nc4ccccc4n3c2)c1	·	?	7.9	0	13%	-1	?
O=C(Nc1ccc2oc(-c3ccccc3)nc2c1)c1cccnc1	1.4%	2.4%	-0.6	-2	11%	-5	3.1
O=C(NCc1cccnc1)c1ccc(NC(=O)c2ccco2)cc1	-2.5%	-3.5%	2.9	1	19%	-8	-0.1
O=C(O)c1c(NC(=O)N2CCOCC2)sc2c1CCCC2	·	0.3%	1.2	-37	3%	-23	6.9
Cc1cc(C)c(S(=O)(=O)Nc2ncccc2C)c(C)c1	-18%	3.6%	·	23	16%	·	-7.0
COCC(Cc1ccccc1)NC(=O)Cn1cc(C)c(=O)[nH]c1=O (configuration not stated)	0.6%	-0.7%	0.1	·	·	15	·
CC(=O)C1=C(Nc2ccccc2)CC(C)(O)C(C(C)=O)C1c1ccccc1 (configuration not stated)	-4.7%	1.5%	0.2	-13	-2%	-5	-0.6
O=C(O)CNC(=O)/C(=C/c1ccco1)NC(=O)/C=C/c1ccccc1	1.2%	5.7%	-0.2	10	56µM*	1	-4.5
CN(C)S(=O)(=O)c1ccc(C(=O)NCc2nnc(SCC(=O)N3CCCCCC3)o2)cc1	-0.6%	0.4%	0.1	-4	4%	-16	·
O=C(COc1ncnc2ccccc12)Nc1cc([N+](=O)[O-])ccc1F	·	2.1%	0.7	-1	2%	-2	7.1
N/C(=N\OC(=O)c1ccc(F)cc1)c1cccc([N+](=O)[O-])c1	1.7%	1.6%	-0.3	-15	-6%	-8	-1.0
COc1ccc(-c2ncccc2OC(=O)C23CC4CC(CC(C4)C2)C3)cc1OC	0.7%	12%	3.1	10	-4%	13	0.5

Filtered by structure: those above with bromine.
SMILES	ClpP mod	PINK1 modulator	TRPML1 agonist	TRPV1 PAM	Sfp inh	TRPML1 inh	Menin-MLL FL inh
CC(=O)Nc1ccc(NC(=O)Cn2nc([N+](=O)[O-])c(Br)c2C)cc1	·	1.9%	-1.4	3	-1%	14	2.1
COC(=O)[C@@H](NC(=O)Nc1cccc(Br)c1)C(C)C	-0.4%	-1.0%	1.3	-6	-12%	9	3.6
CCN(CC)S(=O)(=O)c1cc(C(=O)Oc2cccc(-c3cnc4ccccc4n3)c2)ccc1Br	-2.3%	-3.8%	0.0	9	11%	23	4.8

New compounds follow:
SMILES	ClpP mod	PINK1 modulator	TRPML1 agonist	TRPV1 PAM	Sfp inh	TRPML1 inh	Menin-MLL FL inh
COC(=O)c1c(NC(=O)c2cccc([N+](=O)[O-])c2)sc(C(N)=O)c1C	·	1.1%	-0.3	2	45µM*	-18	-1.7
COc1ccc(N2CCN(S(=O)(=O)CCNC(=O)COc3ccccc3)CC2)cc1	18µM*	12%	-0.6	-1	·	-4	·
O=C1COc2ccc(S(=O)(=O)CCC(=O)N3CCN(c4cccc(C(F)(F)F)c4)CC3)cc2N1	·	-1.1%	0.7	-17	10%	-6	·
O=S(=O)(c1cc(F)ccc1F)N1CCN(C2CCCCC2)CC1	?	1.3%	0.1	-8	11%	-4	0.5
O=C(CN1C(=O)NC2(CCCC2)C1=O)Nc1cccc(-c2nnc3n2CCCCC3)c1	-1.5%	-0.8%	-0.7	18	?	8	7.7
Cc1cc(C)cc(N(C(=O)c2ccc(Br)o2)C2C=CS(=O)(=O)C2)c1 (configuration not stated)	·	3.1%	0.1	-4	12%	3	0.0
Cc1ccc(C(=O)COc2cccc(NC(=O)c3ccco3)c2)cc1	16µM*	-0.6%	0.1	-33	-5%	16	3.1
Cc1cc(OCC(=O)N2CCC(O)CC2)c2c(C)cc(=O)oc2c1	3.9%	-1.3%	-0.1	-12	-1%	10	·
O=C(OCCN1C(=O)c2ccccc2C1=O)[C@@H]1CC(O)CN1S(=O)(=O)c1ccccc1[N+](=O)[O-] (some centres not stated)	-0.4%	0.5%	2.3	·	·	2	·
CCOC(=O)N1CCN(S(=O)(=O)c2ccc3c(c2)SCC(=O)N3)CC1	0.5%	-0.1%	1.2	1	15%	19	1.1
COc1ccc(-c2n[nH]c3c2CN(C(=O)c2ccccc2)CC3)cc1	0.9%	3.5%	-0.8	?	12%	1	-1.3

Filtered by structure, the entries above containing a cyano group.
SMILES	ClpP mod	PINK1 modulator	TRPML1 agonist	TRPV1 PAM	Sfp inh	TRPML1 inh	Menin-MLL FL inh
COc1cc(C#N)c(NC(=O)CN2CCC(C(N)=O)CC2)cc1OC	-0.7%	0.3%	-0.5	10	18%	42	5.4
Cc1ccc(O)c(C(=O)c2cc(C#N)c3nc4ccccc4n3c2)c1	·	?	7.9	0	13%	-1	?

High-throughput results from PubChem.
